EPAC1 ag val – human EPAC1 agonism, validation; 16,000 compounds, 1% hits; O95398; Potency, µM, inactives show max response, positive = active, usual class: activators; EPAC1 Rap1b BODIPY-GDP exchange, fluorescence; active = well fitted activation curve with a large enough effect;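 note: nearly all actives have a fitted effect of over 70% in size; series mostly up to about 76 or 150 µM; scaled to a cAMP control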
* marks the source's active call; other numbers are inactive results. % is set by controls: 0 for no effect and ±100 for the full control effect; potency is the fitted concentration of half-maximal effect. An excerpt, so the mix of outcomes need not match the whole.

SMILES	EPAC1 ag val
CC(C)C[C@H](CN)CC(=O)O	14%
